Source: PubChem
PrP 5UTR inh = suppresses PrP 5' UTR mRNA reporter expression; cell-based PrP 5' UTR mRNA reporter, plate reader; inhibition, % (test concentration not listed); 340,000 compounds, 0.35% hits;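 active = every replicate at 50% or more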;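 also: 0 = median of the neutral control wells; tested in H4 reporter cells; numbers are from one replicate; inactives centre near -14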
RN4220 kill = S. aureus RN4220 growth inhibition; OD600, 16 h; inhibition, % (test concentration not listed); 330,000 compounds, 0.33% hits; AID 1259311;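 active = z-score of -3 or lower and OD600 up to 0.18 on both plates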;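 also: plate controls were untreated cells for no effect and reference antibiotic for full effect; stock transfer was 100 nL into about 80 µL; one replicate is shown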
Mtb hypoxia rep = inhibitors of hypoxia-regulated fluorescent reporter in Mycobacterium tuberculosis. M. tuberculosis hypoxia-regulated fluorescent reporter, fluorescence. 300,000 compounds, 0.1% hits. fluorescence inhibition, % (concentration not given with the values). AID 1159583;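 active = 35 to 45% if threefold the growth effect, above 45% if 1.5-fold the growth effect; inactive = the rest, general growth blockers included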;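 also: wells of about 50 µL received 100 nL stock; 0% = vehicle wells and 100% = reference inhibitor wells; whole bacteria with a GFP reporter of the hypoxia response; strong numbers were not always called active; many hits fall short of the cut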
BJeLR lethal = BJeLR cell viability loss; BJeLR (HRASV12) viability, CellTiter-Glo ATP luminescence, 48 h; reference of the scale not given here; inhibition, % (no concentration beside the values); 300,000 compounds, 0.17% hits; AID 1554;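 active = replicate mean above 50%; inconclusive = above 50% but judged a plate artefact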;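 also: 50 nL library stock added to about 25 µL; numbers are from one replicate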
ugtP null kill = kills S. aureus RN4220 lacking UgtP; 330,000 compounds, 0.54% hits; S. aureus RN4220 ugtP deletion, OD600 growth, 16 h; some inactives read as strong as hits; growth inhibition, % (no concentration beside the values);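 active = z-score under -3 and OD600 up to 0.15 on both plates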;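 also: plate controls were untreated wells for no effect and antibiotic for full effect; wells of about 80 µL received 100 nL stock; the first replicate is given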
Bead autofluor = compound fluorescence in toxin protease inhibitor counterscreen. fluorescence intensity (test concentration not listed). 360,000 compounds, 3.1% hits. compound autofluorescence counterscreen, microsphere flow cytometry; active compounds read high;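 active = at least 3 SD above the mean of all compounds, about 16000 in these data; inconclusive = too few beads counted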;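 also: 100 nL of 1 mM stock went into each well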
Mtb hypoxia rep growth = also measured in Mtb hypoxia rep; calls as there; growth inhibition, %; measured here: M. tuberculosis growth (absorbance);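 0% = vehicle and 100% = reference antibiotic; read after six days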
Numbers without * were called inactive; ? = inconclusive; / = not tested or not shown.

mol	PrP 5UTR inh	RN4220 kill	Mtb hypoxia rep	Mtb hypoxia rep growth	BJeLR lethal	ugtP null kill	Bead autofluor
CCCCc1nnc(NC(=O)c2ccc(S(=O)(=O)N3CCOCC3)cc2)s1	-3	-0.8	-9	10	/	-3	4356
Cc1ccsc1C=NNC(=O)c1cccs1	/	11	6	1	/	-3	/
COC(=O)CNC(=O)c1ccccc1	-13	0.4	/	/	4	-19	6068
COC(=O)c1c(-c2ccco2)csc1NC(=O)C1CC=CCC1C(=O)O (configuration not stated)	-1	21	11	11	-2	14	2478
COc1ccc(Br)cc1S(=O)(=O)NCCN1CCOCC1	-18	4.2	12	1	3	3	4435
Cc1ccc2nc(SCC(=O)Nc3cc(C)on3)c(C)cc2c1	-20	2.4	9	-7	3	-8	3900
CN(C)CCNc1nc2c(c(=O)[nH]c(=O)n2C)n1CC(O)COc1ccc(Cl)cc1 (configuration not stated)	2	2.9	-10	0	0	1	9726
O=[N+]([O-])c1cccc(C=NNc2nccnc2Cl)c1	/	3.5	1	1	/	4	/
CCCC(C)C(=O)Nc1ccncc1 (configuration not stated)	-2	-3.3	-3	12	-8	-5	3155
CCOC(=O)C1CCN(S(=O)(=O)c2ccc(C(=O)OC)cc2)CC1	-30	1.2	-6	-6	6	2	9761
O=C(CNC(=S)N(Cc1ccc(F)cc1)C1CCCCC1)NC1CC1	-31	0.6	-2	-4	-2	-1	11113
CC(Sc1nc2ccccc2s1)C(=O)NC1CCCc2ccccc21 (configuration not stated)	-24	12	-1	2	-13	7	7397
CC(C)CC(NC(=O)OC(C)(C)C)c1cn(C(CCCCNC(=O)OC(C)(C)C)C(=O)N2CCN(C(=O)OC(C)(C)C)CC2)nn1 (configuration not stated)	/	5.4	1	17	/	7	/
Fc1ccc(NC(=S)NCc2ccc3c(c2)OCO3)cc1	-13	1.2	11	2	-5	4	2613
Cc1cccc(C)c1N(C(=O)c1ccco1)C(C(=O)NC1CCCC1)c1ccncc1 (configuration not stated)	-4	0.6	-4	4	-1	2	3844
CC(=NN1CCN(Cc2ccccc2Cl)CC1)c1ccc(F)cc1	/	2.1	1	2	/	6	/
Cc1cc(C)cc(C(=O)N2CC(=O)Nc3ccccc32)c1	37	-3.3	-1	4	48	-3	?
COc1ccc(N2CCN(C(CNC(=O)CC(C)(C)C)c3ccc4c(c3)OCO4)CC2)cc1 (configuration not stated)	-8	2.5	-1	4	-6	8	5223
O=C(O)CN1CCN(CC(=O)O)CCN(CC(=O)O)CCN(CC(=O)O)CC1	-20	9.4	8	9	-15	-2	5999
Cc1c(-c2ccc(F)cc2)nc(N)c(C#N)c1-c1ccco1	-25	-0.6	0	4	7	-4	9632
Cc1ccc(S(=O)(=O)NC(C(=O)OCC(=O)NC2CCS(=O)(=O)C2)C(C)C)cc1 (configuration not stated)	9	-0.6	4	7	0	0	6285
CCCCNC(=O)NNC(=O)c1ccc(F)cc1	2	1.7	4	1	-2	-1	7345
COc1ccc(C2N(c3ccc(C)cc3)CCN2c2ccc(C)cc2)cc1O	-22	2.1	6	13	9	2	4389
O=C(OC(c1ccccc1)c1nccc2ccccc12)c1cc([N+](=O)[O-])cc([N+](=O)[O-])c1 (configuration not stated)	-6	-1.7	14	4	-10	25	2105
CCOC(=O)C1CCN(C(=O)c2oc3ccc(S(=O)(=O)N4CCCCCC4)cc3c2C)CC1	5	7.2	5	8	2	2	3976
CCCNC(=O)[C@@H]1CCCN1C(=O)[C@@H]1Cc2ccccc2CN1	-25	-2.4	15	3	-9	-2	3840
Cc1ccc(C)c(NC(=O)COC(=O)CC2CC3CCC2C3)c1 (configuration not stated)	-14	4.3	9	4	/	6	3030
Cc1c(C#N)c2ccccc2n1CC(=O)NCc1ccccc1	-11	-12	6	3	-2	-3	3200
CC1(C)Cc2c(cnn2-c2cccc(F)c2)C(NC(=O)Cn2cccn2)C1 (configuration not stated)	-3	1.7	-4	-1	6	2	4954
O=C(CSc1nnc(-c2cccnc2)o1)Nc1nccs1	-19	2.8	7	7	0	4	6445

(further entries)
mol	PrP 5UTR inh	RN4220 kill	Mtb hypoxia rep	Mtb hypoxia rep growth	BJeLR lethal	ugtP null kill	Bead autofluor
Cc1cc(OC(=O)c2c(C)cc(O)cc2O)cc(O)c1C(=O)O	7	/	/	/	9	/	5891
O=C(CC1NC2CCCCC2NC1=O)Nc1cccc(C(F)(F)F)c1 (configuration not stated)	1	3.2	2	7	1	1	7043
Nc1cccc(Oc2ccc3c(c2)C(=O)NC3=O)c1	-17	2.6	1	2	-1	-2	3785
O=C1c2ccccc2C(=O)c2cc(NC(=O)C3CC3)ccc21	-123	17	-4	2	-9	9	10476
Cc1c(NC(=O)c2cc(-c3ccccc3)on2)c(=O)n(-c2ccccc2)n1C	8	-0.8	-1	4	-9	-2	8047
Cc1ccc(CN2CCN(N=Cc3cc(Br)cc(Br)c3O)CC2)c(C)c1	/	-2.9	3	-4	/	2	/
CN1CCN(c2nc(-c3ccco3)cc(C(F)(F)F)n2)CC1	-9	8.8	6	-1	3	8	17518*
CN1CCC(CO)(Cc2ccccc2)CC1	-20	3.3	4	2	-2	2	4471
CC(=O)Nc1ccc(NC(=O)CSc2nnc(NC(=O)Cc3ccc(F)cc3)s2)cc1	-4	-0.2	4	9	-1	-3	5602
CC(=O)N1CC2(C)CN(C(C)=O)CC(C)(C1)C2=O	-28	-1.8	/	/	4	9	2882
CC(C)c1nc(=S)c2ccccc2[nH]1	-16	-2.5	4	-1	1	-1	4226
CC(C)Oc1ccc(Cc2cnc(N)nc2N)cc1	-20	17	4	11	0	91*	10301
CCOc1ccc(C2CC(c3ccc(OC)c(OC)c3)n3nc(N)nc3N2)cc1 (configuration not stated)	-23	1.1	/	/	-13	-4	5292
O=C(CCCN1C(=O)CSc2ncccc21)N1CCN(Cc2ccccc2)CC1	-18	0.1	/	/	11	5	5560
C=CCOc1ccc(C=NNC(=O)CN2CCCCC2)cc1OC	/	-2.6	9	0	/	10	/
CC(=N/N=C1/NC(=O)C(CC(=O)O)S1)c1ccccn1 (configuration not stated)	/	3.5	-2	4	/	-3	/
O=C(O)Cn1c(=O)c2c3c(sc2n(Cc2ccc(Cl)cc2Cl)c1=O)CCCC3	-19	15	10	6	2	-9	4068
O=C([O-])c1ccccc1-[n+]1c(-c2ccccc2)cc(-c2ccccc2)cc1-c1ccccc1	0	98*	12	24	2	98*	4135
COc1ccc(N=Cc2nc(-c3ccco3)oc2O)cc1	-87	5.9	/	/	-4	8	2867
COc1ccc(C(=O)OCc2ccc(C)cc2)cc1S(=O)(=O)N1CCOCC1	-16	3.6	0	-1	/	5	5491
CC1CN(C(=NS(=O)(=O)c2ccccc2)c2ccccc2)CC(C)O1 (configuration not stated)	/	4.3	5	8	/	9	/
NC(=O)C1CCN(C(=O)/C=C/c2ccco2)CC1	-28	3.7	-4	-3	-6	2	2587
Cc1c(Cl)cccc1NC(=S)NCCc1ccc(C(F)(F)F)cc1	-47	3.8	12	6	-8	-12	4301
Cc1cccc(N2CCN(C(=O)c3ccc4ncsc4c3)CC2)c1C	-54	-3.2	/	/	/	-6	3863
O=C(COc1ccc(S(=O)(=O)NCc2ccccc2)cc1)N1CCOCC1	-27	4.2	10	7	5	1	5148
Cc1cc(=O)oc2cc(OCC(=O)N3CCN(Cc4ccccc4)CC3)ccc12	-12	2.7	6	7	/	7	3009
O=C(CSc1nc2ccccc2o1)N1CCN(c2ccccc2)CC1	-9	2.7	/	/	7	11	2562
CCc1cc2c(=O)c(Oc3ccccc3)c(C)oc2cc1O	-23	0.4	-1	12	-4	10	5319
CCOC(=O)CSc1nc2cc(S(=O)(=O)N3CCOCC3)ccc2n1CC	-29	0.9	2	7	6	9	?
COc1cccc(-c2nnc(SCC(=O)Nc3ccc(OC)c(OC)c3)n2N)c1	-13	-2.7	-2	7	3	-13	23134*

Another view of two compounds above.
> CCOC(=O)CSc1nc2cc(S(=O)(=O)N3CCOCC3)ccc2n1CC
  PrP 5UTR inh: -29
  RN4220 kill: 0.9
  Mtb hypoxia rep: 2
  Mtb hypoxia rep growth: 7
  BJeLR lethal: 6
  ugtP null kill: 9
  Bead autofluor: ?

> COc1cccc(-c2nnc(SCC(=O)Nc3ccc(OC)c(OC)c3)n2N)c1
  PrP 5UTR inh: -13
  RN4220 kill: -2.7
  Mtb hypoxia rep: -2
  Mtb hypoxia rep growth: 7
  BJeLR lethal: 3
  ugtP null kill: -13
  Bead autofluor: 23134*

The results go on.
mol	PrP 5UTR inh	RN4220 kill	Mtb hypoxia rep	Mtb hypoxia rep growth	BJeLR lethal	ugtP null kill	Bead autofluor
CCC(C)n1c(O)c(/C=N/NC(=O)c2ccncc2)c(=O)[nH]c1=S (configuration not stated)	-11	6.9	5	-5	4	1	7733
CC(/C=N/NC(=O)Cc1cccn1C)=C\c1ccccc1	-42	/	/	/	-15	/	2471
O=C(O)CN1C(=O)/C(=C\c2cccc(OC(=O)c3ccco3)c2)SC1=S	-19	0.8	3	0	-13	-6	4870
O=C1CSC(=S)N1/N=C/c1cccc(C(F)(F)F)c1	-1	/	/	/	3	/	4873
CCCC[n+]1c(C)sc2ccc(C)cc21	-12	-0.1	1	-3	6	7	2438
CCOc1ccccc1NC(=O)CNC(=O)CNC(=O)Cc1ccccc1	-11	3.7	-4	-5	0	-1	4481
CCN(C[C@H]1N[C@@](CC)(C(=O)OC)[C@H]2C(=O)N(Cc3ccccc3)C(=O)[C@@H]12)S(=O)(=O)c1ccccc1	-23	3.0	-1	11	/	0	3548
O=C(NC1CCCCC1)N1CCC(c2nc(-c3ccc(S(=O)(=O)N4CCCC4)cc3)no2)CC1	0	-0.4	-1	4	-2	16	8041
Cc1ccc2cc(CCNC(=O)C(C)(C)C)c(=O)[nH]c2c1	-10	-0.3	2	14	7	6	5648
CCO[C@@H]1OC(C(=O)N2CCN(C)CC2)=C[C@H](c2ccc(C(F)(F)F)cc2)[C@H]1CCCO	-4	/	/	/	-3	/	2838
O=C(CCCC(=O)N(CC(=O)NC1CCCC1)c1cccc(F)c1)Nc1ccccn1	-4	-0.6	2	-4	-13	-4	5455
COCc1cc(C)nc(NN=Cc2ccc(-c3ccc(Cl)cc3[N+](=O)[O-])o2)c1C#N	/	2.6	10	15	/	3	/
Cc1cc(NC(=O)Cn2c(=O)n(CCCCC(=O)NC3CCN(Cc4ccccc4)CC3)c(=O)c3ccccc32)n[nH]1	/	4.8	9	17	0	4	/
COc1ccc(NC(=S)Nc2cccc(Cl)c2Cl)cc1OC	-4	3.5	6	5	7	3	3189
CCNS(=O)(=O)c1ccc(NC(=O)c2ccc(Cn3cc(Br)cn3)o2)cc1	-6	4.5	8	4	-4	2	2033
Cc1[nH]c(=O)[nH]c(=O)c1S(=O)(=O)N1CCN(c2ccccc2F)CC1	-24	-6.6	11	5	-1	22	4429
COC(=O)c1ccccc1NC(=O)c1ccc2c(c1)C(=O)N(Cc1ccco1)C2=O	-17	4.2	15	11	-3	2	3344
c1cc(OCCCN2CCCCC2)ccc1CN1CCCCC1	1	-0.7	-1	-3	-3	2	3590
O=S(=O)(c1ccccc1)N1CCN(c2cc(-c3ccccc3)nc3ncnn23)CC1	/	-0.3	5	1	-1	0	8415
CCSC1=C(C#N)C2(CCCC2)C(C#N)=C(N)N1	-14	-2.9	/	/	-5	-4	2312
CCc1noc(C)c1C(=O)OCC(=O)c1ccc(NC(C)=O)cc1F	-7	-7.3	2	-3	/	-19	3764
Nc1ccc(N)c(C(=O)O)c1	6	/	/	/	-6	/	4497
CC1CCN(C(=O)CSc2nnc(CN3CCOCC3)n2-c2ccccc2)CC1	-24	0.2	-1	2	/	-3	21833*
CC(C)Cn1c(=O)c(C(=O)N/N=C/c2cccc(F)c2)c(O)c2ccccc21	21	/	/	/	-6	/	1995
COc1ccc(N2CCN(Cc3nc4ccccc4n3C)CC2)cc1	11	8.1	4	2	9	-1	2404
COC(=O)C1=C(c2ccc(S(C)(=O)=O)cc2)C[C@@H]2CC[C@H]1N2C(=O)N1CCOCC1	-5	/	/	/	-6	/	3706
N#Cc1cc2c(nc1SCC(=O)Nc1cc(Cl)ccc1Cl)C1CCN2CC1	-26	1.5	7	10	1	6	20370*

This is a random part of the collection (roughly 4% active in at least one column).
